# Vaccinia mCherry: vaccinia inhibition (mCherry reporter) | Vaccinia virus mCherry reporter infection, fluorescence; about a quarter of the inactives have no number | Potency, µM (highest dose often 36.5 µM), for inactives: at the highest dose activity change, negative = inhibition, actives largely listed as inhibitors | actives 0.63% (n = 310,000) | AID 720579; active = well fitted inhibition curve with a large enough effect; inconclusive = small, poorly fitted or top-dose-only effect; inactive = no such curve, though single readings can be large or run the other way; tested in A549 cells; further: nearly all actives have a fitted effect of over 35% in size; inactives centre near -10
# VACV Venus inh: inhibitors of vaccinia virus (Venus reporter); Vaccinia virus Venus reporter expression, fluorescence; AID 720580; Potency, µM (top dose mostly 36.5 µM), for inactives: at the highest dose activity change, negative = inhibition, hits mostly inhibitors; actives 0.46% (n = 330,000); active means well fitted inhibition curve with a large enough effect; inconclusive means small, poorly fitted or top-dose-only effect; inactive means no such curve, though single readings can be large or run the other way; tested in A549 cells; further: nearly all actives have a fitted effect of over 30% in size; inactives centre near -10
# Starred values were filed as active, the others as inactive; i = inactive; ? = inconclusive; . = no result given; & = joins results of further samples; [ ] = dose if it differs, or a comment. On the % scale 0 is the no-effect control and ±100 the full control effect; potency means the concentration at half of the fitted maximal effect.
SMILES,Vaccinia mCherry,VACV Venus inh
O=C(C1COc2ccccc2O1)N1CCN(c2ccccc2Cl)CC1 (centres undefined),i,-1%
CCSc1nnc(NC(=O)CCn2c(=O)oc3ccccc32)s1,-4%,2%
CCCCc1cc(=O)oc2cc(OC(C)C(=O)NCCN3CCOCC3)ccc12 (centres undefined),-15%,-10%
COC(=O)c1cccc(NC(=O)COc2cccc([N+](=O)[O-])c2)c1,-11%,-16%
O=C(/C(=C/c1cccc(Cl)c1)c1nc2ccccc2[nH]1)c1ccccc1,i,-22%
Cc1cc([N+](C)(C)C)cc(C)c1/C=C/c1ccnc2ccccc12,?,?
CCOc1ccc(-c2cc(C(=O)Oc3ccc(C#N)cc3)no2)cc1,i,-9%
CCc1noc(C)c1C(=O)N(CCC(C)C)c1c(N)n(Cc2ccccc2)c(=O)[nH]c1=O,-20%,-7%
Fc1ccc(Nc2nc(SCc3ccccc3Cl)nc3ccccc23)cc1,-12%,-9%
CC(=O)NC(C)(c1ccccc1)c1nc(-c2cccc(C(F)(F)F)c2)cs1 (centres undefined),i,-21%
COc1ccc(NC(=O)c2cc(-c3sc(NC(=O)c4ccccc4)nc3C)n(-c3ccc(Br)cc3)n2)cc1,-6%,-12%
COc1ccc(OCc2nnc(NC(=O)Nc3ccccc3F)s2)cc1,?,-9%
CCO/C(C)=N/n1c2nc3ccccc3nc2c2c(=O)n(CC(C)C)c(C)nc21,i,-9%
CC(C)N=C1NN=C(c2ccc(F)cc2)CS1,-14%,-3%
C/C(=N/NC(=O)c1ccc2c(c1)OCO2)c1ccc(NC(=O)c2ccc(F)cc2)cc1,-16%,-3%
O=C(NNC(=O)c1cccs1)c1cccc(F)c1,i,-20%
CSC1=C(C#N)C(C)CC(=O)N1 (centres undefined),-2%,-2%
CCOc1ccc(CCNC(=O)C2CC(C)=CCC2C(=O)O)cc1OCC (centres undefined),-4%,1%
CC1(C)Cc2c(C#N)c(OCC(=O)c3ccc(Cl)cc3)nc(-c3ccoc3)c2CO1,.,0%
O=C(CCl)NNc1nc(-c2ccccc2)c2cc(Cl)ccc2n1,?,-10%
CCO/C([O-])=N/c1c[n+](N2CCOCC2)no1,-22%&-9%,-18%&-8%&-2%
COC(=O)[C@@]12C[C@@H](CC(=O)NCCCN3CCCC3=O)C(=O)N(CCc3ccc(OC)c(OC)c3)C1=CCC(C)(C)C2,-7%,-29%
COCCn1c(SCc2nc3ccccc3s2)nc2ccccc21,-15%,-15%
CCOC(=O)N1CCN(C(=O)CN2C(=O)c3ccccc3S2(=O)=O)CC1,i,5%
COC(=O)c1ccccc1NC(=O)N1CCc2c(sc3c2CCCC3)C1c1ccc(F)cc1 (centres undefined),-21%,-16%
O=C(c1cc(COc2ccc(F)cc2Cl)on1)N1C[C@H]2CC[C@H]1C2,-18%,-26%
C[C@H]1CN(c2ccc(Br)cc2)C(=O)[C@@H]1CC(=O)Nc1ccccc1,i,-17%
Cc1ccc(NC(=O)c2ccc(N/N=C/c3cccc(O)c3)c([N+](=O)[O-])c2)cc1,i,?
Cc1cc(C)cc(-c2nnc(SCC(=O)c3ccc4c(c3)OCCO4)o2)c1,-12%,3%
Cc1ccc(OCCC(=O)NNC(=O)c2ccncc2)cc1,i,-1%

# Molecules from the list above with bromine (2):
SMILES,Vaccinia mCherry,VACV Venus inh
COc1ccc(NC(=O)c2cc(-c3sc(NC(=O)c4ccccc4)nc3C)n(-c3ccc(Br)cc3)n2)cc1,-6%,-12%
C[C@H]1CN(c2ccc(Br)cc2)C(=O)[C@@H]1CC(=O)Nc1ccccc1,i,-17%

# 6 neighbouring entries from above, for reference:
SMILES,Vaccinia mCherry,VACV Venus inh
COC(=O)c1ccccc1NC(=O)N1CCc2c(sc3c2CCCC3)C1c1ccc(F)cc1 (centres undefined),-21%,-16%
O=C(c1cc(COc2ccc(F)cc2Cl)on1)N1C[C@H]2CC[C@H]1C2,-18%,-26%
C[C@H]1CN(c2ccc(Br)cc2)C(=O)[C@@H]1CC(=O)Nc1ccccc1,i,-17%
Cc1ccc(NC(=O)c2ccc(N/N=C/c3cccc(O)c3)c([N+](=O)[O-])c2)cc1,i,?
Cc1cc(C)cc(-c2nnc(SCC(=O)c3ccc4c(c3)OCCO4)o2)c1,-12%,3%
Cc1ccc(OCCC(=O)NNC(=O)c2ccncc2)cc1,i,-1%

# Additional compounds follow.
SMILES,Vaccinia mCherry,VACV Venus inh
COc1ccc(Cl)cc1NC(=O)C1(c2cccs2)CCOCC1,-10%,-8%
Cc1csc(NC(=O)CCSCCc2ccccn2)n1,i,-21%
Cc1c(NC(=O)c2ccccc2F)c(=O)n(-c2ccccc2)n1C,-9%,-10%
O=S(=O)(Nc1nc(-c2ccccc2)cs1)c1cc(Cl)ccc1Cl,i,0%
COc1ccc(Nc2nc3c(S(=O)(=O)c4ccccc4)nnn3c3ccc(Cl)cc23)c(OC)c1,-14%,-10%
C1=C(CCNC2=NCCCCC2)CCCC1,-14%,-7%
O=S(=O)(c1ccc(S(=O)(=O)N2CCCC3(CCCCC3)C2)cc1)N1CCCCC1,i,2%
O=[N+]([O-])c1cccc(S(=O)(=O)NCCOc2cccc3cccnc23)c1,i,-11%
Cc1cccc(N2CCN(CC(O)COc3ccccc3Cl)CC2)c1 (centres undefined),i,-15%
O=C(c1cccn1-c1nnc(N2CCCC2)s1)N1CCN(c2ccc(F)cc2)CC1,-12%,0%
CC(/C=N/NC(=O)c1c(Br)cnn1C)=C\c1ccccc1,-6%,-22%
CC1C(=O)N2CCCc3cc(NC(=O)c4ccccc4Br)cc1c32 (centres undefined),i,-16%
CCC(CC(C)(C)O)C(=O)NNC(=S)Nc1ccccc1 (centres undefined),-11%,14%
CC(C)(C)c1ccc(C(=O)N2CCCC2c2cccs2)cc1 (centres undefined),-9%,-23%
CCOC(=O)c1c(C)oc(NC(=O)CCl)c1C(=O)OCC,?,-18%
O=C(Cn1nc(Cl)nc1Cl)c1cc2ccccc2oc1=O,-16%,-8%
O=C(c1cnn2cccnc12)N1CCN(c2ccccc2)CC1,-13%,-6%
COC(=O)c1ccc(Cl)cc1NC(=O)N(C)CCc1c(C)nn(C)c1C,-11%,-8%
CCC(=O)OCC(=O)Nc1ccc2c(c1)OCO2,10%,0%
COc1ccc(CNn2c(-c3cccc(C)c3)nc3ccccc3c2=O)cc1OC,-13%,-8%
O=C(NC(=S)Nc1ccccc1Br)C1CCCCC1,i,-3%
Cc1ccccc1NC(=O)COC(=O)c1ccccc1SCC(=O)N1CCCC1,-16%,-8%
O=C(NCc1ccccn1)c1ccc(NS(=O)(=O)c2cccc(Cl)c2)cc1,i,-12%
COc1cc(C(=O)OCC(=O)Nc2cccc(S(=O)(=O)N3CCCC3)c2)ccc1OCC(C)C,-11%,-12%
O=C(NCCN1CCOCC1)C(=O)NCC1OCCCN1S(=O)(=O)c1ccc(F)cc1 (centres undefined),-15%,-6%
Cc1nn(-c2ccccc2)c(Cl)c1C(=O)N1CCN(c2ncnc3c2cnn3-c2ccccc2)CC1,.,?
O=C(C(=O)N1CCCc2ccccc21)c1cn(CC(=O)N2CCOCC2)c2ccccc12,i,-1%
COc1ccccc1CNC(=O)CCCN1C(=O)CSc2c1c(C)nn2-c1ccccc1,3%,3%
O=C1c2ccccc2NC(c2ccccc2F)N1NS(=O)(=O)c1ccccc1 (centres undefined),-1%,-18%
CC(=O)NNC(=O)c1sc(=S)n2c1[nH]c(=O)c1sccc12,-1%,0%
CCC(C(=O)NC(C)(C)C)N(C(=O)Cn1nnc(-c2cccs2)n1)c1cnc2ccccc2c1 (centres undefined),-28%,-17%
CN(C=[N+](C)C)c1cccc2c1C(=O)c1ccccc1C2=O,-3%,14%
CC1CN(Cc2nc3c(c(=O)[nH]c(=O)n3C)n2CC(N)=O)CC(C)O1 (centres undefined),-12%,-2%
CCNC(=O)c1c(O)c2c([nH]c1=O)CCCC2,-6%,0%
COc1ccc(C/C(C)=N/NC(=S)Nc2ccccc2F)cc1,-6%,-7%
CC(C)N(C(=O)CSc1nc2ccc(Cl)cc2[nH]1)c1ccccc1,-11%,-10%
COC(=O)[C@@]12C[C@@H](CC(=O)NCCCCc3ccccc3)C(=O)N(Cc3cccc4ccccc34)C1=CCC(C)(C)C2,?,?
O=[N+]([O-])c1ccc(O)c(/C=N/Nc2ccccc2[N+](=O)[O-])c1,-8%,-7%
CCCCN1CC[C@H]2C=CC[C@@H](C(=O)Nc3ccc(Cl)cc3Cl)[C@H]2C1=O,?,?
CCc1ccc(N2CCn3c2nc2c3c(=O)n(Cc3cccc(C)c3)c(=O)n2C)cc1,-11%,-11%
COc1ccc(-c2cc(C(F)(F)F)n3ncc(C(=O)NCC4CCCO4)c3n2)cc1 (centres undefined),-8%,-5%
CC(=O)c1ccccc1C(=O)N1CCCC(N2CCN(Cc3ccc4c(c3)OCO4)CC2)C1 (centres undefined),-10%,-5%
COc1ccc(C)cc1-n1cnc2cc(C(=O)NC3CCCC3)ccc21,-10%,-9%
CCOC(=O)Cc1csc(NC(=O)Nc2ccc(Cl)cc2)n1,-11%,-23%
CCc1cccc(C)c1NC(=O)C1CCN(S(=O)(=O)c2c(C)noc2/C=C/c2c(C)cc(C)cc2C)CC1,-20%[7.34 µM],-11%[7.34 µM]
CCCC(c1nnnn1Cc1cccs1)N1CCN(c2ccc(OC)cc2)CC1 (centres undefined),-10%,-16%
Cc1ccc(-c2csc(C(C)(O)c3ccc(F)c(F)c3)n2)cc1C (centres undefined),i,-3%
COc1cc2cc(CN(Cc3nnnn3Cc3ccccc3)CC3CCCO3)c(=O)[nH]c2cc1OC (centres undefined),-21%,-10%
CC1CCCCC1NC(=O)C1CCCN(S(=O)(=O)c2ccc(-n3cnnn3)cc2)C1 (centres undefined),i,-17%
COc1ccc(CCNC(=O)CSc2cn(CCNC(=O)c3ccccc3F)c3ccccc23)cc1OC,-19%,-12%

# Next part.
SMILES,Vaccinia mCherry,VACV Venus inh
Cc1ccn2nc(S(=O)(=O)Nc3c(F)cccc3F)nc2n1,-9%,-1%
CCCOc1ccc(C(=O)Nc2ccc(N3CCOCC3)cc2N2CCOCC2)cc1OCC,-26%,-26%
CCOC(=O)c1cnc2ccc(C)cc2c1Nc1ccc(OCc2ccccc2Cl)cc1,-24%,-11%
CCOc1ccccc1CN1CCC(Oc2cccc(C(=O)NCCOC)c2)CC1,i,-5%
O=C1CC(c2ccccc2)CC(O)=C1C=Nc1ccccc1 (centres undefined),-27%,-19%
COCC(=O)N[C@@H]1c2cc(OC)c(OC)cc2C[C@H]1OCc1ccccc1,i,-4%
Cc1cccc(NC(=O)CCn2nc(-c3ccccc3)c3ccccc3c2=O)c1,-11%,-6%
O=C1CN(C(=O)COC(=O)COc2ccc3c(c2)CCC3)c2ccccc2N1,-12%,3%
CCCCC(=O)N(C)c1c(CC)nc2c(OCC(=O)N3CCOCC3)cccn12,-6%,-1%
CCC(=O)N1c2ccccc2CC1C(=O)NCc1cc(OC)ccc1OC (centres undefined),-13%,-9%
COc1ccc(Br)c(C(=O)NC2CCCC2)c1,0%,-4%
O=C(COC(=O)c1cccc(NC(=O)c2ccc(Br)cc2)c1)c1ccc(Br)cc1,?,?
COc1ccccc1NC1=NCC(=O)N1Cc1ccccc1,10%,16%
CC(=O)Nc1ccc(NC(=O)/C=C/c2ccc3c(c2)OCO3)cc1,0%,3%
Cc1cc(NC(=O)c2cc3ncc(Br)cn3n2)no1,.,-6%
Nc1nc2n(c1C(=O)c1ccccc1)CCC2,i,-9%
Cc1ccccc1C(=O)Nc1sc2c(c1C(=O)N1CCCCC1)CCC(C)C2 (centres undefined),-15%,-6%
CC(C)Cn1nc(C(=O)Nc2cccc(C(=O)NC3CC3)c2)c2ccccc2c1=O,-9%,-18%
O=C(COC(=O)c1ccccn1)NCc1ccccc1,-7%,-10%
O=C(COC(=O)c1cc2ccccc2oc1=O)Nc1cccc(Br)c1,-11%,-12%

# Laid out differently: 3 of the compounds above
# Results follow in this order: Vaccinia mCherry	VACV Venus inh
CC(C)Cn1nc(C(=O)Nc2cccc(C(=O)NC3CC3)c2)c2ccccc2c1=O
    -9%	-18%
O=C(COC(=O)c1ccccn1)NCc1ccccc1
    -7%	-10%
O=C(COC(=O)c1cc2ccccc2oc1=O)Nc1cccc(Br)c1
    -11%	-12%

# (cont.)
SMILES,Vaccinia mCherry,VACV Venus inh
O=C(CNC(=O)c1ccccc1Br)N/N=C/c1ccco1,-13%,-3%
CC(C)C[C@H]1CNC(=S)N1C[C@H]1CCCN1C[C@H](CC(C)C)N1C[C@H](Cc2ccc(O)cc2)N(CCc2ccccc2)C1=S,4%,-22%
CCOC(=O)c1ccc(NC(=O)c2cc3c(=O)n(C)c4ccccc4c3n2C)cc1,2%,5%
Cc1ccc2ccccc2c1C(O)c1ncc(-c2ccc(C(F)(F)F)cc2)[nH]1 (centres undefined),i,-12%
Cc1nc(-c2ccccc2)sc1C1(C)CC(c2cccc([N+](=O)[O-])c2)=NO1 (centres undefined),?,-5%
Cc1nnc(N2CCN(c3ccccc3F)CC2)c2c1nnn2Cc1ccccc1,-12%,-16%
CCNC(=O)NC(=O)CSc1ccc(S(=O)(=O)N(C)C2CCCCC2)cn1,?,-17%

# Compound activity (PubChem)
